Vif A3G = HIV-1 Vif–A3G interaction blockers – biochemical, TR-FRET, GST-Vif 1-94, biotin-A3G peptide, dose response retest, primary screen (AID 1117319) | TR-FRET GST-Vif / biotin-A3G peptide binding; higher % means a stronger effect; test concentration not given here; strong numbers were not always called active | inhibition, %; hits with a dose series show IC50 in µM | 0.57% of 260,000 active;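 active = above the screen mean plus three standard deviations and confirmed in dose response; inconclusive = results disagree or hit not tested in dose response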;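 also: Vif residues 1-94 fused to GST binding biotinylated APOBEC3G peptide 110-148; 0% = full assay without inhibitor and 100% = GST in place of GST-Vif; retest series ran down from 100 µM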
Beta apoptosis = beta cell apoptosis inhibition | protection from apoptosis, % (no concentration beside the values) | INS-1E cytokine-induced death, ATP luminescence, 48 h; percent of positive-control rescue, neutral wells zero | 0.8% of 300,000 active | AID 435005;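 active = all replicates at 75% or more, or half of them and the mean; inconclusive = half reach 75% but not the mean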;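 also: 0% = cytokine-treated negative control wells and 100% = positive control rescue; higher means more ATP so stronger rescue from cytokine killing; wells of about 40 µL received 100 nL stock; the first replicate is given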
Calb FLC = affects C. albicans growth with fluconazole | C. albicans CaCi-2 (fluconazole-resistant clinical isolate) + fluconazole, Alamar Blue growth, 48 h | growth inhibition, % (test concentration not listed) | 0.57% of 300,000 active;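 active = most replicates above 75%; inconclusive = exactly half above 75%; inactive = most below 75%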;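 also: all wells also contain fluconazole at 8 µg/ml as a sub-toxic cotreatment; 0% = median of DMSO wells and 100% = median of geldanamycin control wells; wells of about 8 µL received 7.5 nL stock; the first replicate is given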
RanGTP-Imp inh = disruptors of Ran-importin-beta complex formation – biochemical, FRET, CFP-Ran, YFP-importin-beta, homogeneous, primary screen | cell-free CFP-Ran/YFP-importin-beta FRET ratio | inhibition, % (concentration not given with the values) | 1.1% of 300,000 active | AID 2216;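 active = most replicates above 15%; inconclusive = exactly half above 15%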;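 also: 0% = DMSO wells and 100% = Ran loaded with GDP instead of GTP; wells of about 40 µL received 100 nL stock; the first replicate is given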
T cruzi inh = T. cruzi replication inhibition | T. cruzi beta-gal in NIH3T3, luminescence, 90 h | 1.4% of 300,000 active | inhibition, % (no concentration beside the values);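 active = mean inhibition across valid replicates above about 55%, limit read from the data; inconclusive = mean below that limit but half or more replicates reach it; inactive = mean below it, under half of replicates reach it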;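 also: signal also drops with host cell toxicity which is not excluded here; 0% = plate median of DMSO wells and 100% = zero luminescence signal; higher percent means less beta-gal luminescence so fewer parasites; stock transfer was 50 nL into about 50 µL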
Bfl-1 A1 inh = inhibitors of the anti-apoptotic protein A1, read as caspase activation; MEF A1-2A-BIM cells, Caspase-Glo 3/7 luminescence, 3 h; percent of clofoctol response, vehicle zero; caspase activation, % (concentration not given with the values); 0.066% of 330,000 active; AID 2462;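 active = over half of replicate activation scores above 10%, or exactly half above 10 with the replicate mean above 10; inconclusive = replicate mean below 10 yet half the replicates above 10; inactive = over half of replicates below 10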;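 also: wells of about 30 µL received 50 nL stock; many hits fall short of the cut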
Ecoli rRNA inh = inhibits bacterial ribosomal RNA function over humanized ribosomes; E. coli WT GFP vs humanized-ribosome RFP mutants, fluorescence, 24 h; active compounds read low; DMSO median 0, no signal -100; GFP signal change (wild-type ribosome), % (test concentration not listed); 1.6% of 350,000 active; AID 720706;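 active = significant combined selectivity score with lowered wild-type GFP, culture density cut under 30%, mutant RFP and density less affected; inactive = any of these conditions unmet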; also: one replicate is shown; some compounds called inactive have numbers as strong as hits
AF4-AF9 inh = blocks AF4 peptide binding to human AF9. 0.47% of 350,000 active. AlphaScreen, biotin-AF4 peptide binding to FLAG-AF9. P42568. inhibition, % at 10 µM;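 active = every replicate reaching a set inhibition limit, whatever the replicate mean, cut at about 25% in these data; inconclusive = mean inhibition reaches that limit but some replicates miss it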;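 also: 0% = plate neutral control median and 100% = total signal loss; the record names both 10 and 1 µM as test concentration; the first replicate is given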
Target sequence (P42568 whole entry, looked up): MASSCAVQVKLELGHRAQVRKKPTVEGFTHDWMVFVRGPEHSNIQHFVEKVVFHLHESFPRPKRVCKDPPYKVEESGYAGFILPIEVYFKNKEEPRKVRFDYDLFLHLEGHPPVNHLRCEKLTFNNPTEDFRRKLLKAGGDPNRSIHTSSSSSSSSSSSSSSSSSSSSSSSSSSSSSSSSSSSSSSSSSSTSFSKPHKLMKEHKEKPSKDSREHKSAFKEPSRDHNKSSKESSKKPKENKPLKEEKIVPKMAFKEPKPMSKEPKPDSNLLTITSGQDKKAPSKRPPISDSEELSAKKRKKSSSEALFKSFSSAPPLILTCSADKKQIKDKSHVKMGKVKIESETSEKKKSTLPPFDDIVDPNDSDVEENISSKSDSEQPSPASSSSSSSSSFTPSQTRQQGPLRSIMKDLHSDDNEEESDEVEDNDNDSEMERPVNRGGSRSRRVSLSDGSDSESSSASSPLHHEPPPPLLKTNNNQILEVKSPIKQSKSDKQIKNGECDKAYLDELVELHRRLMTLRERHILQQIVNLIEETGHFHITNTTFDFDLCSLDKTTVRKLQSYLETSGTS
Ecoli rRNA inh OD600 = further read-out of Ecoli rRNA inh, marked with its call; OD600 change, %; measured here: OD600 growth;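 optical density of the mix in the first replicate; 0 = DMSO median and -100 = no signal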
Ecoli rRNA inh RFP = further read-out of Ecoli rRNA inh, marked with its call; RFP signal change, %; measured here: RFP humanized mutant strains;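 first replicate; 0 = DMSO median and -100 = no signal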
* marks the source's active call; other numbers are inactive results; & = joins results of further samples. These rows are one share of the data (hit frequency here may not be typical).

Results for CC(NC(=S)Nc1ccccc1C(F)(F)F)C1CC2CCC1C2 (stereo not given) ?
Beta apoptosis: 1.6; Calb FLC: -14.8; RanGTP-Imp inh: -4.5; T cruzi inh: -2.4; Bfl-1 A1 inh: -0.6; Ecoli rRNA inh: -8.2; AF4-AF9 inh: -5.0; Ecoli rRNA inh OD600: -5.4; Ecoli rRNA inh RFP: 4.8

What do the screens show for `O=S(=O)(N1CCOCC1)N1CCN(c2ccc(F)cc2)CC1`?
Vif A3G: 5.3%; Beta apoptosis: -4.4; Calb FLC: 2.5; RanGTP-Imp inh: 3.8; T cruzi inh: -5.9; Bfl-1 A1 inh: 0.8; Ecoli rRNA inh: 5.6; AF4-AF9 inh: 1.5; Ecoli rRNA inh OD600: 1.3; Ecoli rRNA inh RFP: -4.7

Results for CNCCCOc1cccc(Oc2ccccc2)c1 ?
Vif A3G: 9.7%; Beta apoptosis: -3.0; Calb FLC: -24.5; RanGTP-Imp inh: inconclusive; T cruzi inh: 60.2*; Bfl-1 A1 inh: 0.0; Ecoli rRNA inh: 0.6; AF4-AF9 inh: 2.0; Ecoli rRNA inh OD600: -2.2; Ecoli rRNA inh RFP: 4.6

What do the screens show for `O=C(c1cccnc1)N(c1cc2sc(=O)oc2c2ccccc12)S(=O)(=O)c1ccccc1`?
Vif A3G: 4.2%; Beta apoptosis: 81.4*; Calb FLC: 10.3; RanGTP-Imp inh: -3.7; T cruzi inh: 0.0; Bfl-1 A1 inh: 0.0; Ecoli rRNA inh: 2.7; AF4-AF9 inh: -7.6; Ecoli rRNA inh OD600: -13.1; Ecoli rRNA inh RFP: -9.4

How did CC(C)Cn1c(SCC(=O)N(C)C2CCS(=O)(=O)C2)nc2cc(Cl)ccc2c1=O (stereo not given) do in these assays?
Vif A3G: -1.1%; Beta apoptosis: 7.7; Calb FLC: 11.3; RanGTP-Imp inh: 0.4; T cruzi inh: 31.4; Bfl-1 A1 inh: 1.2; Ecoli rRNA inh: 8.6; AF4-AF9 inh: -0.5; Ecoli rRNA inh OD600: 4.9; Ecoli rRNA inh RFP: -0.6

How did O=C(NC1CCS(=O)(=O)C1)c1cccnc1 (stereo not given) do in these assays?
Vif A3G: -2.6%; Beta apoptosis: -1.7; Calb FLC: -1.1; RanGTP-Imp inh: -1.4; T cruzi inh: -20.6; Bfl-1 A1 inh: -0.2

Results for CC(C)c1cccc(C(C)C)c1NC(=O)c1ccccc1 ?
Vif A3G: -2.1%; Beta apoptosis: -3.4; Calb FLC: -3.0; RanGTP-Imp inh: 0.7; T cruzi inh: 2.2; Bfl-1 A1 inh: 0.2; Ecoli rRNA inh: 18.1; AF4-AF9 inh: -1.2; Ecoli rRNA inh OD600: 9.1; Ecoli rRNA inh RFP: 3.1

How did COc1ccc(/C=C2/CCOC2=O)cc1 do in these assays?
Vif A3G: 16.7%; Beta apoptosis: -5.5; Calb FLC: -3.1; RanGTP-Imp inh: -0.2; T cruzi inh: -14.0; Bfl-1 A1 inh: -0.8

How did O=C(COc1ccccc1)Nc1nnc(-c2ccc(Cl)s2)o1 do in these assays?
Vif A3G: -4.1%; Beta apoptosis: -4.3; Calb FLC: -1.4; RanGTP-Imp inh: 0.8; T cruzi inh: -2.8; Bfl-1 A1 inh: -0.1; Ecoli rRNA inh: -34.6; AF4-AF9 inh: -0.5; Ecoli rRNA inh OD600: -52.0; Ecoli rRNA inh RFP: -5.6

How did COc1ccc(-n2nnnc2SCC(=O)NCc2ccco2)cc1OC do in these assays?
Vif A3G: 7.2%; Beta apoptosis: 4.4; Calb FLC: -3.2; RanGTP-Imp inh: -3.4; T cruzi inh: -4.8; Bfl-1 A1 inh: 0.2; Ecoli rRNA inh: 3.9; AF4-AF9 inh: -1.6; Ecoli rRNA inh OD600: -0.2; Ecoli rRNA inh RFP: 0.0

How did O=C(Cn1nc(C(=O)O)c2ccccc2c1=O)Nc1ccc(Br)cc1 do in these assays?
Beta apoptosis: -1.5; Calb FLC: 10.3; RanGTP-Imp inh: 2.1; T cruzi inh: -2.6; Bfl-1 A1 inh: 0.1; Ecoli rRNA inh: 3.2; AF4-AF9 inh: 1.1; Ecoli rRNA inh OD600: 12.4; Ecoli rRNA inh RFP: -0.4

What do the screens show for `Cc1cc(NC(=O)CSc2nccn2-c2ccc(F)cc2)no1`?
Vif A3G: 0.2%; Beta apoptosis: 2.1; Calb FLC: 0.2; RanGTP-Imp inh: 2.2; T cruzi inh: -6.7; Bfl-1 A1 inh: 0.5

What do the screens show for `CCOCCCN1C(=O)C(=O)N(CC(=O)N2c3ccccc3NC(=O)CC2C)C1=O` (stereo not given)?
Vif A3G: -12.8%; Beta apoptosis: -1.5; Bfl-1 A1 inh: 0.0; Ecoli rRNA inh: 15.2; AF4-AF9 inh: -2.6; Ecoli rRNA inh OD600: 15.8; Ecoli rRNA inh RFP: 0.0

Results for Cn1c(-c2sc3cc(C(F)(F)F)cnc3c2-c2cccs2)n[nH]c1=S ?
Vif A3G: -2.7%; Beta apoptosis: -0.4; Calb FLC: 6.5; RanGTP-Imp inh: 0.9; T cruzi inh: 20.2; Bfl-1 A1 inh: 0.8; Ecoli rRNA inh: -7.8; AF4-AF9 inh: -4.1; Ecoli rRNA inh OD600: -11.2; Ecoli rRNA inh RFP: -2.5

What do the screens show for `O=c1[nH]c2ccc([N+](=O)[O-])cc2nc1/C=C(\O)c1ccccc1`?
Vif A3G: 4.0%; Beta apoptosis: 30.5; Calb FLC: 3.0; RanGTP-Imp inh: -2.4; T cruzi inh: -21.7; Bfl-1 A1 inh: -2.4; Ecoli rRNA inh: 15.8; AF4-AF9 inh: -2.3; Ecoli rRNA inh OD600: 11.8; Ecoli rRNA inh RFP: 13.8

Results for O=C(NCCCCNC(=O)c1ccc(Br)s1)c1ccc(Br)s1 ?
Vif A3G: -132.9%; Beta apoptosis: -9.0; Calb FLC: 12.0; RanGTP-Imp inh: -6.9; T cruzi inh: -3.7; Bfl-1 A1 inh: -2.2

How did CC(C)(C)c1nnc(NC(=O)CCS(=O)(=O)c2ccccc2)s1 do in these assays?
Calb FLC: 93.3*; RanGTP-Imp inh: -0.5; T cruzi inh: -8.8; Bfl-1 A1 inh: 0.5; Ecoli rRNA inh: 4.0; AF4-AF9 inh: 0.1; Ecoli rRNA inh OD600: 1.0; Ecoli rRNA inh RFP: 0.0

Results for CN(C)S(=O)(=O)Nc1cccc(Br)c1 ?
Vif A3G: -7.9%&27.6%; Beta apoptosis: -3.1; Calb FLC: 11.6; RanGTP-Imp inh: 2.8; T cruzi inh: -12.9; Bfl-1 A1 inh: 0.0; Ecoli rRNA inh: 0.6; AF4-AF9 inh: -7.3; Ecoli rRNA inh OD600: 5.5; Ecoli rRNA inh RFP: 1.7

What do the screens show for `O=C(O)Cn1c2c(c3ccccc31)CCCC2`?
Vif A3G: 12.2%; Beta apoptosis: 2.9; Calb FLC: 8.8; RanGTP-Imp inh: 28.6*; T cruzi inh: 5.8; Bfl-1 A1 inh: 1.0

Results for COC(=O)C1=C(C)NC(=O)NC1c1ccc(-c2ccc(F)cc2)o1 (stereo not given) ?
Beta apoptosis: 7.1; Calb FLC: 4.1; RanGTP-Imp inh: -1.4; T cruzi inh: 6.3; Bfl-1 A1 inh: -0.2; Ecoli rRNA inh: -10.9; AF4-AF9 inh: 1.9; Ecoli rRNA inh OD600: -15.9; Ecoli rRNA inh RFP: -1.2

What do the screens show for `O=C(O)c1ccc2c(c1)S(=O)(=O)c1ccccc1C2=O`?
Vif A3G: -2.7%; Beta apoptosis: -2.2; Calb FLC: 4.2; RanGTP-Imp inh: 4.6; T cruzi inh: 1.3; Bfl-1 A1 inh: -0.7

What do the screens show for `COC(=O)C(C)N1CCC(=O)c2ccccc2S1(=O)=O` (stereo not given)?
Beta apoptosis: -6.5; Calb FLC: 0.5; RanGTP-Imp inh: -3.2; T cruzi inh: -19.3; Bfl-1 A1 inh: 0.1

What do the screens show for `Cc1cc(C)n2nc(-c3ccccc3)c(-c3ccccc3)c2n1`?
Beta apoptosis: -3.5; Calb FLC: 0.8; RanGTP-Imp inh: -2.8; T cruzi inh: 13.0; Bfl-1 A1 inh: -0.4; Ecoli rRNA inh: 12.8; AF4-AF9 inh: -8.2; Ecoli rRNA inh OD600: 10.9; Ecoli rRNA inh RFP: 0.7

How did CC(C)C12CN3CC(C(C)C)(CN(C1)C3c1ccco1)C2=O (stereo not given) do in these assays?
Vif A3G: -0.4%; Beta apoptosis: -4.7; Calb FLC: 25.1; RanGTP-Imp inh: -2.8; T cruzi inh: -1.8; Bfl-1 A1 inh: 0.1

What do the screens show for `COc1ccc(S(=O)(=O)N2CCCCC2)cc1NC(=O)CN(Cc1ccco1)Cc1ccco1`?
Beta apoptosis: 61.9; Bfl-1 A1 inh: -0.5; Ecoli rRNA inh: 0.8; AF4-AF9 inh: 3.9; Ecoli rRNA inh OD600: -7.7; Ecoli rRNA inh RFP: -0.1

How did Cn1c(O)c(C=Nc2ccc(Br)cc2)sc1=O do in these assays?
Vif A3G: -1.2%; Calb FLC: -28.3; RanGTP-Imp inh: 3.6; T cruzi inh: -3.3; Bfl-1 A1 inh: -6.1; Ecoli rRNA inh: 40.3; AF4-AF9 inh: 2.8; Ecoli rRNA inh OD600: 25.6; Ecoli rRNA inh RFP: 1.7

How did Oc1ccc(C[C@@H]2CNCCN2CC2CCCCC2)cc1 do in these assays?
Beta apoptosis: 1.3; Calb FLC: -6.3; RanGTP-Imp inh: -3.9; T cruzi inh: 9.3; Bfl-1 A1 inh: 1.8; Ecoli rRNA inh: 6.2; AF4-AF9 inh: 2.2; Ecoli rRNA inh OD600: -1.6; Ecoli rRNA inh RFP: 4.0

What do the screens show for `Oc1ccc(Br)cc1CNc1cccc2cccnc12`?
Beta apoptosis: 99.6*; Calb FLC: -3.7; RanGTP-Imp inh: -1.9; T cruzi inh: 5.0; Bfl-1 A1 inh: 1.1; Ecoli rRNA inh: -42.2; AF4-AF9 inh: 11.2; Ecoli rRNA inh OD600: -70.1; Ecoli rRNA inh RFP: -9.1

Two successive entries from above:
How did Oc1ccc(C[C@@H]2CNCCN2CC2CCCCC2)cc1 do in these assays?
Beta apoptosis: 1.3; Calb FLC: -6.3; RanGTP-Imp inh: -3.9; T cruzi inh: 9.3; Bfl-1 A1 inh: 1.8; Ecoli rRNA inh: 6.2; AF4-AF9 inh: 2.2; Ecoli rRNA inh OD600: -1.6; Ecoli rRNA inh RFP: 4.0

What do the screens show for `Oc1ccc(Br)cc1CNc1cccc2cccnc12`?
Beta apoptosis: 99.6*; Calb FLC: -3.7; RanGTP-Imp inh: -1.9; T cruzi inh: 5.0; Bfl-1 A1 inh: 1.1; Ecoli rRNA inh: -42.2; AF4-AF9 inh: 11.2; Ecoli rRNA inh OD600: -70.1; Ecoli rRNA inh RFP: -9.1

Source: PubChem BioAssay (several laboratories)
